Screens (PubChem BioAssay)
Arbovirus anti: blocks arbovirus infection; arbovirus infection cell-based antiviral screen; inhibition, % at 10 µM; 0.37% of 200,000 active;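 active = inhibition from about 30%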;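 note: bluetongue infection of BSR cells; cell survival read as ATP light after 72 h; 0% = infected wells without compound and 100% = uninfected wells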
YopH inh: blocks Yersinia enterocolitica YopH tyrosine phosphatase; fluorescence Ex485/Em525; inhibition, %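 (about 10 µM by stock and volumes)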; 0.16% of 140,000 active; AID 898;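 active = inhibition of 50% or more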;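 note: controls were vehicle for no effect and minimum signal wells for full effect; inactives centre near -20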
Mtb H37Rv: M. tuberculosis H37Rv growth inhibitors, H37Rv strain (AID 1626); inhibition, % at 10 µM; hits with a dose series show IC50 in µM; M. tuberculosis H37Rv growth inhibition; higher % means a stronger effect; 0.95% of 220,000 active;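 active = confirmed in a dose series; inconclusive = inhibition above 80% but not taken into the dose series; inactive = below 80% or under 30% at every dose of the series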;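 note: bacteria incubated seven days before Alamar blue readout; 0% = bacteria only wells and 100% = bacteria with antibiotic wells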
RecA splice inh: inhibitors of M. tuberculosis RecA intein splicing. P9WHJ3. cell-free RecA intein splicing, fluorescence. inhibition, %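 (about 9 µM by stock and volumes)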. 0.75% of 290,000 active; in the data active = inhibition above about 30%; inconclusive = no clear call, values can overlap the other calls;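 note: 0% = vehicle wells and 100% = reference inhibitor control wells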
Target sequence (P9WHJ3 whole entry, looked up, canonical isoform): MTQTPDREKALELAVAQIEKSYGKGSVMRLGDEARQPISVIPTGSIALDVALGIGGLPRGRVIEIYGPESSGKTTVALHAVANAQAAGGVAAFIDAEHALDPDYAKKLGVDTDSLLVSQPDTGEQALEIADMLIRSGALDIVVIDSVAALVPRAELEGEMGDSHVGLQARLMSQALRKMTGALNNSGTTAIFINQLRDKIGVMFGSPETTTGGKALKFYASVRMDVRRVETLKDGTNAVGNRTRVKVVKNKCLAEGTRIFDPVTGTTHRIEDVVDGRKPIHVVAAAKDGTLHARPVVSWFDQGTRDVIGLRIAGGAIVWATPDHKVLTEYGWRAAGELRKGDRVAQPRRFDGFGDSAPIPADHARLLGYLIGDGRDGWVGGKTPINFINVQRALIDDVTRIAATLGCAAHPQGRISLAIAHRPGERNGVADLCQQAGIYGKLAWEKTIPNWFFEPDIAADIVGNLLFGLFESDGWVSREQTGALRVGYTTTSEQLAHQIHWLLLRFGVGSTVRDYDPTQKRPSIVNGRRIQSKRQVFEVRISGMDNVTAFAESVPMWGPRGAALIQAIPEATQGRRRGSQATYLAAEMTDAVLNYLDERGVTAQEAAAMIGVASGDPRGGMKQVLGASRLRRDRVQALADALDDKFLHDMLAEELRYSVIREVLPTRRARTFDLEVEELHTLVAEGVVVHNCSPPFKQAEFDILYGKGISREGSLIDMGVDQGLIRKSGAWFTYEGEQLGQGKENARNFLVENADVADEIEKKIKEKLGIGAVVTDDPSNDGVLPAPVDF
Mtb betalactam: beta-lactam sensitization of Mtb H37Rv; M. tuberculosis H37Rv growth with meropenem, percent inhibition; hits of this screen are not shown here; inhibition, % at 25 µM; 0.27% of 330,000 active;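 active = about 74% or more and at least 40 points above the plate without the antibiotic, then above 30% in a dose series; inconclusive = first-round hits that could not be retested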;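 note: growth measured after seven days incubation then overnight dye step; 0% = bacteria only wells and 100% = bacteria with antibiotic; twin plates without the antibiotic show which effects depend on it; some results filed as inactive read as strong as hits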
Arbovirus anti repeat: also measured in Arbovirus anti; calls as there; inhibition, %; measured here: 10K subset replicate screen; many hits read low in the repeat;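 first of two repeat runs on a subset; 0% = infected and 100% = uninfected wells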
An asterisk follows results filed as active; u = inconclusive; x = not tested or not shown.

The opening ten entries, to show the layout:
SMILES | Arbovirus anti | YopH inh | Mtb H37Rv | RecA splice inh | Mtb betalactam | others
COc1ccc(-c2csc(N(CCCN3CCOCC3)C(=O)c3ccco3)n2)cc1 | 5.3 | -19.1 | -1.2% | 1.1 | 5.3
Clc1ccc(-c2[nH]ncc2N=Nc2ccccc2)cc1 | x | x | x | 3.4 | 99.5
CSc1ccccc1C(=O)N(C)C(c1ccccc1)c1ccccc1 | x | x | x | 18.8 | 3.0
CCN(CC)CC(=O)N1N=C(c2cccs2)CC1c1ccco1 (configuration not stated) | 0.5 | -26.4 | 0.2% | -1.5 | -6.8
CSc1nnc(C)c(/C=C/Nc2ccc(F)cc2)n1 | -6.1 | -20.4 | -1.4% | 0.6 | 7.3
CNC(=O)COc1coc(CN2CCN(c3ccc(F)cc3)CC2)cc1=O | x | x | x | -2.3 | -7.8
COc1cc(C(=S)N2CCCCC2)ccc1OCC(=O)Nc1ccccc1Cl | 3.7 | x | 7.5% | -1.6 | -3.1
CCOC(=O)c1c(/N=C/c2cccc(C)c2O)sc2c1CCN(C)C2 | -6.5 | -23.2 | -3.9% | -9.5 | 0.7
Cc1nc(C)n(CC(O)COc2ccc(C(=O)c3ccccc3)cc2)n1 (configuration not stated) | -0.4 | -4.0 | -12.2% | -2.5 | 8.8
COc1ccc(N2CSC3=C(C#N)C(c4cccc(OC)c4OC)CC(=O)N3C2)cc1 (configuration not stated) | 1.0 | -18.8 | 54.7µM* | 3.7 | -6.9 | Arbovirus anti repeat=-7.4

The list itself, previewed entries included:
SMILES | Arbovirus anti | YopH inh | Mtb H37Rv | RecA splice inh | Mtb betalactam | others
COc1ccc(-c2csc(N(CCCN3CCOCC3)C(=O)c3ccco3)n2)cc1 | 5.3 | -19.1 | -1.2% | 1.1 | 5.3
Clc1ccc(-c2[nH]ncc2N=Nc2ccccc2)cc1 | x | x | x | 3.4 | 99.5
CSc1ccccc1C(=O)N(C)C(c1ccccc1)c1ccccc1 | x | x | x | 18.8 | 3.0
CCN(CC)CC(=O)N1N=C(c2cccs2)CC1c1ccco1 (configuration not stated) | 0.5 | -26.4 | 0.2% | -1.5 | -6.8
CSc1nnc(C)c(/C=C/Nc2ccc(F)cc2)n1 | -6.1 | -20.4 | -1.4% | 0.6 | 7.3
CNC(=O)COc1coc(CN2CCN(c3ccc(F)cc3)CC2)cc1=O | x | x | x | -2.3 | -7.8
COc1cc(C(=S)N2CCCCC2)ccc1OCC(=O)Nc1ccccc1Cl | 3.7 | x | 7.5% | -1.6 | -3.1
CCOC(=O)c1c(/N=C/c2cccc(C)c2O)sc2c1CCN(C)C2 | -6.5 | -23.2 | -3.9% | -9.5 | 0.7
Cc1nc(C)n(CC(O)COc2ccc(C(=O)c3ccccc3)cc2)n1 (configuration not stated) | -0.4 | -4.0 | -12.2% | -2.5 | 8.8
COc1ccc(N2CSC3=C(C#N)C(c4cccc(OC)c4OC)CC(=O)N3C2)cc1 (configuration not stated) | 1.0 | -18.8 | 54.7µM* | 3.7 | -6.9 | Arbovirus anti repeat=-7.4
NS(=O)(=O)c1cnccc1NCCc1ccccc1 | x | x | x | -0.9 | -1.5
CCOc1ccc2nc(NS(=O)(=O)c3ccc(NC(C)=O)cc3)sc2c1 | 11.6 | 4.2 | -1.4% | 0.8 | -11.8
CN1CCN(C(CNC(=O)c2ccc(Br)o2)c2ccc(F)cc2)CC1 (configuration not stated) | x | x | x | 0.8 | -2.4
Cc1c(NC(=O)C(C)OC(=O)Cc2ccccc2)c(=O)n(-c2ccccc2)n1C (configuration not stated) | 1.4 | -13.0 | -13.3% | -0.6 | -3.3
COc1ccc(S(=O)(=O)Nc2ccccn2)c(C)c1C | 18.1 | -34.6 | -3.2% | -1.6 | -9.1
CCn1c(SCC(=O)N2CCCC2)nc2ccccc2c1=O | -8.3 | -6.9 | -2.8% | -2.3 | -1.9
O=C(Nc1nc(-c2ccccc2)cs1)C1COc2ccccc2O1 (configuration not stated) | 8.6 | -21.3 | 8.0% | 15.2 | 29.2
CCC/C(O)=C1\C(=O)CC(c2ccccc2)CC1=NCCc1c(C)[nH]c2ccccc12 (configuration not stated) | -2.1 | -8.5 | 1.9% | 2.3 | 2.3
Cc1ccc(C2=NN(CC(=O)NCc3cccs3)C(=O)CC2)cc1 | -2.1 | x | -4.2% | 2.5 | -3.8
Cc1cc(=O)[nH]c(SCc2cccc(Br)c2)n1 | 5.7 | 27.8 | -8.9% | 3.1 | 3.4
Cc1cccc(C(=O)NCC(c2cccs2)N2CCOCC2)c1 (configuration not stated) | x | x | x | 1.3 | -13.1
O=S(=O)(/N=C(\Nc1ccc(F)cc1)C(F)(F)F)c1ccccc1 | 0.0 | -47.7 | -7.3% | 2.3 | -3.9
Cc1ccc(C(=O)Nc2ccc3ccccc3c2)cc1 | x | x | x | 3.1 | 56.6
COc1cc2c(cc1OC)C(COc1ccc([N+](=O)[O-])cc1)N(C(C)=O)CC2 (configuration not stated) | x | x | x | -0.5 | 1.5
CCOC(=O)C1CCCN(C(=O)CCCn2c(=O)c3cccn3c3cccnc32)C1 (configuration not stated) | x | x | x | -1.6 | -5.5
COc1ccc(N2CC(C(=O)Nc3ccccc3C(=O)NCc3ccco3)CC2=O)cc1 (configuration not stated) | -6.4 | -29.1 | -4.2% | -1.7 | -0.4
Cc1sc2nc(SCC(=O)NCc3ccco3)n(Cc3ccccc3)c(=O)c2c1C | -3.6 | -6.5 | -2.4% | -0.4 | 1.1
O=C(NC1CCC(NC(=O)C2CCCO2)CC1)C1CCCO1 (configuration not stated) | -0.7 | -15.2 | -4.4% | -0.2 | x
COc1ccc(-c2csc(NCCc3nc4cc(Cl)c(Cl)cc4n3CCCO)n2)cc1 | x | x | 5.7% | 2.4 | 29.0
Cc1cc(=O)oc(C)c1C(=O)NCCC1=CCCCC1 | 8.6 | -2.8 | -4.9% | -3.4 | -17.8
O=S(=O)(NCCOCC(F)(F)F)c1ccc2oc3ccccc3c2c1 | 11.1 | -35.0 | -4.1% | 0.2 | 1.0
CCOc1ccc(CCNC(=O)COC(=O)/C=C/c2ccccc2)cc1OCC | x | x | x | 2.0 | 1.1
COCC(=O)N1CCN(c2cccc(C(F)(F)F)c2)CC1 | -3.5 | x | 5.9% | -2.2 | 6.7
COC(=O)c1ccc(COc2ccc(/C=C/C(=O)c3ccc(OC)c(CSCC(=O)O)c3)cc2OC)cc1 | x | x | x | 7.5 | 5.5
COc1cc2nc(Cl)nc(N3CCN(C)CC3)c2cc1OC | 7.2 | x | -3.5% | -1.7 | -2.2
O=C(Nc1nnc(SCC(=O)N2CCCc3ccccc32)s1)c1ccccc1 | -1.1 | -8.1 | -2.3% | 0.2 | -7.4
CC(OC(=O)CCc1nc2ccccc2c(=O)[nH]1)C(=O)Nc1ccc2c(c1)OCO2 (configuration not stated) | x | x | -8.3% | x | 2.6
CCN(CC)C(=O)/C(=C/c1cn(S(=O)(=O)N(C)C)c2ccccc12)NC(=O)c1ccc(OC)cc1 | -20.3 | x | 6.7% | -1.1 | 6.5
COC(=O)[C@H]1C[C@@H]1[C@H](NC(=O)c1cnccn1)c1ccccc1 | -1.4 | -34.3 | 8.1% | -0.2 | -5.4
O=C(CN1CCCCCC1)Nc1ccc(Br)cn1 | x | x | x | 0.1 | -5.4
COc1ccccc1OCCC(=O)OCC(=O)Nc1ncc(Cl)cc1Cl | -4.5 | -38.3 | -4.3% | 1.1 | 0.4
c1ccc(-n2nnnc2Oc2ccc(-c3nnco3)cc2)cc1 | -3.0 | -31.2 | -10.3% | 1.5 | -1.5
Cc1ccccc1C(=O)NC(=S)NCC1CCCO1 (configuration not stated) | 2.0 | -25.7 | 2.8% | 5.3 | 10.1
O=S(=O)(c1ccccc1)N1CCC(c2ccccc2)CC1 | x | x | x | 3.2 | 2.2
Cc1ccc(S(=O)(=O)N(C)C)cc1NC(=O)COc1ccccc1C(=O)Nc1ccccc1 | x | x | x | 0.9 | -3.9
CCCC(=O)NC(NC1CCS(=O)(=O)C1)C(Cl)(Cl)Cl (configuration not stated) | 8.3 | x | -10.1% | -0.7 | 2.2
C=CCn1c(COc2ccc(F)cc2)nnc1SCC(=O)c1c[nH]c2c(CC)cccc12 | -4.1 | -20.5 | 3.7% | -3.9 | 1.9
Cc1noc(C)c1S(=O)(=O)N1CCCC(C(=O)NCC2CCCO2)C1 (configuration not stated) | 5.8 | -36.9 | 4.1% | 2.1 | -4.3
CN(C)/C=N/c1nc2nccc(-c3cccc(Cl)c3)n2n1 | -1.1 | x | -2.2% | x | 1.7
Cc1c(C(=O)Nc2ccccc2-c2ccccc2)cccc1[N+](=O)[O-] | -1.9 | -32.9 | -1.1% | -3.2 | -5.5
Cc1ccc(CSc2nc3c(c(=O)[nH]2)C(c2ccncc2)C2=C(CCCC2=O)N3)cc1 (configuration not stated) | 25.1 | -20.6 | -0.5% | 7.5 | 2.4
COCC(C)NC(=O)COc1ccc(Cl)cc1Cl (configuration not stated) | -6.1 | -25.2 | -3.5% | -0.5 | -10.3
O=C(CN1C(=O)CCC1=O)Nc1nc(-c2ccc(Oc3ccccc3)cc2)cs1 | 4.8 | -20.1 | -9.2% | 2.6 | -4.9
CCCCNc1nnc(SCC(=O)N2CCN(S(=O)(=O)c3ccc4ccccc4c3)CC2)s1 | 1.5 | -2.6 | -5.0% | -3.9 | -3.7
CC(=O)c1nn(-c2cccc(Cl)c2)cc1C(=O)c1ccco1 | -8.7 | -22.1 | -7.3% | -12.8 | -1.6
CCOC(=O)C1(CCc2ccccc2)CCN(Cc2ccco2)CC1 | 9.7 | x | 6.5% | 0.1 | -1.0
Cc1cccc(N2C(=N)SCC2=O)c1C | 1.3 | -41.8 | 9.7% | -0.9 | 4.4
COc1ccc(Cn2ccnc2)cc1[N+](=O)[O-] | 1.6 | -14.8 | 0.1% | 0.3 | 5.1
Cc1cc(S(=O)(=O)N2CCOCC2)ccc1OCC(=O)Nc1ccccc1C(F)(F)F | x | x | x | 2.8 | -5.6
CCC(=O)NC1(Cc2ccc(O)cc2)CCCCC1 | 2.0 | x | 1.2% | 0.6 | 4.2

Continued:
SMILES | Arbovirus anti | YopH inh | Mtb H37Rv | RecA splice inh | Mtb betalactam | others
Cn1c(-c2ccccc2)c(/C=N/NC(=O)c2ccc(O)cc2)c2ccccc21 | x | x | -3.3% | 5.4 | -5.7
CCOc1cc(C(=O)Nn2cnnc2)cc(OCC)c1OCC | 12.4 | x | 0.1% | -0.7 | 1.8
Cc1c(C(=O)N2CCc3ccccc32)oc2c1C(=O)CC(C)(C)C2 | 1.4 | -15.1 | 7.8% | x | x
COc1cc(C(=O)N2CCC(C(=O)Nc3cccc(C(C)=O)c3)CC2)cc(OC)c1OC | 10.2 | -26.2 | -4.1% | -0.7 | -5.2
Cc1nc(NC(=O)c2ccccc2)sc1Cc1ccc2c(c1)OCO2 | -14.3 | -32.6 | 60.5µM* | -0.4 | 24.7
O=C(NC1CCCCCC1)C(Cc1ccccc1)n1cccc1 (configuration not stated) | x | x | -0.6% | 0.3 | -0.8
N#Cc1ccc(C23CC4(C2)[C@H](CN(Cc2ccc(C(F)(F)F)cc2)[C@@H]4c2ccccc2)C3c2ccc(Cl)nc2)cc1 (some centres not stated) | x | x | -0.3% | 1.8 | x
COc1ccc(-c2nn(-c3ccccc3)cc2N)cc1 | -3.8 | x | 5.2% | 6.8 | 1.3
CC(C)Cn1c(SCC(=O)c2ccc(Cl)s2)nnc1-c1ccco1 | -3.8 | -18.8 | -5.0% | 2.0 | 3.2
Cc1ccc(NC(=O)Cc2c(O)c3ccccc3[nH]c2=O)c(C)c1 | x | x | -4.8% | -1.2 | -3.7
CCCCC(=O)NC(=S)NNC(=O)c1ccc(OC)cc1 | -16.4 | x | u | 12.4 | 80.1
O=C(O)CNS(=O)(=O)c1ccc(C2CCCCC2)cc1 | 5.6 | x | 9.8% | 1.6 | -2.4
Cc1ccccc1Cn1cnc2c(cnn2C(C)(C)C)c1=O | -2.7 | -37.5 | 4.2% | -0.6 | 23.1
Cc1ccc[n+](CC(=O)/C=C2\N(C)c3ccccc3C2(C)C)c1 | 2.6 | -22.9 | -1.1% | 1.3 | 2.1
CN1CCN(C(=O)c2ccc(C(C)(C)C)cc2)CC1 | 5.8 | -28.5 | -0.8% | -1.1 | 0.6
CCOC(=O)c1ccc(NC(=O)Cn2nnc(-c3ccc(F)cc3)n2)cc1 | 0.8 | -41.5 | 79.0% | 6.2 | 85.8
CCCSc1nc(O)c(C2OC(=O)c3c2ccc(OC)c3OC)c(=O)n1-c1ccccc1 (configuration not stated) | 7.2 | -27.8 | -7.4% | -1.0 | -12.8
Cc1ccc(OCCN2CCOCC2)cc1C | x | x | x | 0.3 | -1.5
O=C(C1CCN(c2nc3ccc(Br)cc3s2)CC1)N1CCC2(CC1)OCCO2 | 7.1 | 14.3 | -2.7% | 0.4 | 7.7

Only part of the results is shown. The share of hits here may be higher or lower than overall.
